# eIF4H FP inh = inhibitors of RNA binding by human eIF4H; eIF4H fluorescence polarization binding assay; inhibition, % at 35 µM; 290,000 compounds, 0.94% hits; AID 2012;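 active = 50% or more with normal probe brightness, or confirmed in later tests; inconclusive = above 50% with abnormal brightness, or retests that disagree; inactive = below 50% or failed in later tests; about a fifth of its hits are not listed in these tables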;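 also: calls also rest on retests at 20 µM and on dose response follow-up; 0% = protein and probe with vehicle and 100% = probe without protein; strong numbers were not always called active; many hits fall short of the cut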
# PABP FP inh = blocks human PABP binding to poly(A) RNA; AID 2014; P11940; inhibition, % at 35 µM; fluorescence polarization; 290,000 compounds, 1% hits;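 active = 50% or more with normal probe brightness, or confirmed in later tests; inconclusive = above 50% with abnormal brightness, or retests that disagree; inactive = below 50% or failed in later tests; about a fifth of its hits are not listed in these tables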;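 also: calls also rest on retests at 20 µM and on dose response follow-up; controls were probe without protein and protein plus probe with vehicle; some compounds called inactive have numbers as strong as hits; many hits fall short of the cut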
# Target sequence (P11940 whole entry, looked up): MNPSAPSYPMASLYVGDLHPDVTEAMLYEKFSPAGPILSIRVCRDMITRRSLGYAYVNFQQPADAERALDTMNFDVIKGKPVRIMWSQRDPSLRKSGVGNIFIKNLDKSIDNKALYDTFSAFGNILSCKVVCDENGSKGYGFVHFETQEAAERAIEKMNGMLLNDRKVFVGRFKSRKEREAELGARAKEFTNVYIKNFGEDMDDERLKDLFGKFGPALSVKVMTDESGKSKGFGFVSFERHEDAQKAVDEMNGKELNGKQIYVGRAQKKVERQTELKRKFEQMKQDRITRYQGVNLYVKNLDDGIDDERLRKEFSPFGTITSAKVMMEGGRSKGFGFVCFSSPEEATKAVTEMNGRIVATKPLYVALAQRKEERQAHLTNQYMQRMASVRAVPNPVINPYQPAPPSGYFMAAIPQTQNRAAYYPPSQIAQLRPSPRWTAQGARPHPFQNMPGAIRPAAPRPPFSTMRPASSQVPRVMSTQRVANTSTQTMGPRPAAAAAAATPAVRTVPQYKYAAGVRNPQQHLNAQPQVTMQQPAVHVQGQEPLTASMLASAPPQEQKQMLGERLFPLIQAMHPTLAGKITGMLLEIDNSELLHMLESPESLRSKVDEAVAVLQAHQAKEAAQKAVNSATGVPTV
# MT1-MMP act inh = blocks activation of human MT1-MMP | P50281 | HT1080 RFP-PRO-GFP cells, GFP/RFP ratio fluorescence, overnight; percent of plate control window, DMSO zero | GFP/RFP ratio change, % at 20 µM | 360,000 compounds, 0.061% hits | AID 651647;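 active = GFP/RFP ratio change of at least 30% with cell ATP level not reduced by more than half and red fluorescence within 50% of control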; also: strong numbers were not always called active
#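 Assay system: RFP-PRO-GFP reporter HT1080 cells; read-out basis: GFP/RFP fluorescence ratio; benchmarks: DMSO wells and RFP-L50D-GFP cells; doses: 20 µM single dose, 1% DMSO; schedule: overnight cell settling, then overnight compound exposure, 37 °C, 5% CO2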
# Env fusion inh = HIV envelope-mediated fusion inhibition; 360,000 compounds, 1.1% hits; inhibition, % at 12.3 µM; HeLa-JRFL Env/CEM21 cell fusion, luciferase;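 active = mean replicate inhibition score of at least 50 and every replicate individually at or above 50; inconclusive = only one of the two criteria met; inactive = mean below 50 and not all replicates reaching 50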;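 also: 0% = plate neutral controls and 100% = maraviroc near 300 nM; one replicate is shown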
# CSC inhib = blocks cancer stem cells | 300,000 compounds, 1.1% hits | inhibition, % at 7.5 µM | cancer stem cell-like cells viability, luminescence;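 active = mean at 75% or more and at least half the replicates too; inconclusive = mean and replicates disagree; tested in HMLE shEcad cells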;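 also: 0% = median of negative and 100% = median of positive control wells; the first replicate is given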
# Rce1 inh = inhibitors of yeast Ras-converting enzyme; Q03530; yeast membranes, quenched prenylated peptide cleavage fluorescence; calls only; 290,000 compounds, 0.27% hits; AID 2563;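 active = fall in fluorescence gain of 50% or more versus controls, with final raw signal at or below 3038400; inconclusive = same 50% fall but final raw signal above 3038400; inactive = fall in fluorescence gain under 50%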;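 also: plate controls were neutral control wells for no effect and wells lacking membranes for full effect; tested at 10 µM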
# UUG fidelity = modulators of start codon recognition fidelity in yeast | AID 602363 | activity score, % at 18.7 µM | 350,000 compounds, 0.13% hits | S. cerevisiae UUG-firefly luciferase reporter, luminescence/redox ratio;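 active = replicate mean at a twofold rise or more, about +100% in these data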;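 also: firefly luciferase made from a UUG start codon reports start codon fidelity; reporter light over untreated wells divided by growth signal over untreated wells; some hits fall short of that in this replicate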
# MT1-MMP act inh RFP = second read-out of MT1-MMP act inh, no call of its own (marks repeat the call); RFP signal change, %; measured here: RFP expression control read;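 0 = vehicle wells; hits needed this value within 50% of zero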
# * = called active by the depositor; i = inactive; ? = inconclusive; . = not tested or not shown; + = active, no number; & = joins results of further samples; [ ] = another dose, or the depositor's remark.
SMILES,eIF4H FP inh,PABP FP inh,MT1-MMP act inh,MT1-MMP act inh RFP,Env fusion inh,CSC inhib,Rce1 inh,UUG fidelity
CCOc1ccc(C2C(C#N)=C(N)Oc3cc(C)n(Cc4ccco4)c(=O)c32)cc1OC (configuration not stated),9,11,1,0,.,-8,i,2
COc1ccc(/C=N/Nc2nc(NCc3ccco3)nc(Nc3ccc(OC)cc3)n2)cc1,-10,3,-4,0,-32,12,i,-24
N=NC(=O)c1ccccc1Nc1c(O)[nH]c2ccccc12,.,.,-1,-1,-274,.,.,-17
O=C(CCc1nnc2n(Cc3ccc(Cl)cc3)c(=O)c3ccccc3n12)NCCCN1CCOCC1,-8,5,2,7,1,-11,i,20
Cn1nc(-c2ccc(Cl)cc2)c2cc(C(=O)NCCCN3CCOCC3)sc21,3,-4,7,8,.,79*,i,-14
Cc1ccc2cc(CN(CC(C)C)C(=O)C3CCCO3)c(=O)[nH]c2c1 (configuration not stated),1,8,-1,8,-14,12,i,7
COc1ccc(N2CCN(C(=O)c3ccc4c(c3)NC(=O)C(CSCc3cccc(F)c3)N4)CC2)cc1 (configuration not stated),-11,-8,.,.,.,2,i,.
CCOC(=O)N1CCC(=NNC(N)=O)CC1,-5,5,4,8,12,-8,i,.
COCCn1c(C)cc(C(=O)COC(=O)/C=C/c2cccc(OC)c2)c1C,4,-2,2,1,14,.,i,.
CN(C)S(=O)(=O)c1ccc(C(=O)OCC(=O)c2ccc(OC(F)F)cc2OC(F)F)cc1,-8,4,-4,7,.,-8,i,-18
Cc1onc(-c2ccccc2)c1C(=O)N(Cc1ccco1)Cc1cccs1,7,-3,-2,-4,36,.,i,.
CN1CCN(C(=S)NC(=O)c2ccc(Br)cc2)CC1,-5,-7,3,0,-3,-12,i,2
CSc1nnc(NC(=O)c2ccc(S(=O)(=O)N3CCOCC3)cc2)s1,0,12,-1,2,-16,-9,i,-6
CCOC(=O)C1CCN(c2ncnc3c2cnn3C)CC1,6,15,-4,0,.,-6,i,1
Cc1nn(CC(=O)Nc2ccccc2)c(=O)c2ccccc12,5,4,3,5,-102,-7,i,-13
Cc1ccc(C(=O)Nc2cc(Cl)ccc2-n2cncn2)o1,.,.,-7,5,-9,-6,i,-3
COc1ccc(NC(=O)CN2CCN(CC(=O)Nc3ccc(OC)cc3)CC2)cc1,-11,0,-2,-2,-28,-6,i,5
CC(C)(C)c1cc(CCC(=O)NCCc2ccccn2)cc(C(C)(C)C)c1O,21,4,-1,0,27,-5,i,-6
[O-][N+]12CC[N+]([O-])(CC1)c1ccccc12,-1,6,1,5,.,-16,i,-6
O=C(COC(=O)/C=C/c1ccc(F)cc1)NC(=O)NCc1ccccc1,.,.,-1,4,34,.,.,3
CNC(=O)NC(=O)CSc1ccc(NC(C)=O)cc1,-10,4,1,0,-58,-1,i,-52
Cc1cc(Cl)ccc1N(CC(=O)N=Nc1c(O)[nH]c2ccccc12)S(C)(=O)=O,-7,-6,6,-1,-42,-7,i,-40
COc1ccccc1NC(=O)/C(=C/c1ccncc1)NC(=O)c1ccccc1,5,5,0,-2,-52,0,i,-17
O=C(Nc1ccccc1Cl)c1cc(C2CCCN(C(=O)CCc3ccccc3)C2)on1 (configuration not stated),.,.,1,2,-9,.,.,-4

# Single records, as listed above:
# Entry for [O-][N+]12CC[N+]([O-])(CC1)c1ccccc12 : eIF4H FP inh = -1; PABP FP inh = 6; MT1-MMP act inh = 1; MT1-MMP act inh RFP = 5; Env fusion inh = .; CSC inhib = -16; Rce1 inh = i; UUG fidelity = -6
# Entry for Cc1cc(Cl)ccc1N(CC(=O)N=Nc1c(O)[nH]c2ccccc12)S(C)(=O)=O : eIF4H FP inh = -7; PABP FP inh = -6; MT1-MMP act inh = 6; MT1-MMP act inh RFP = -1; Env fusion inh = -42; CSC inhib = -7; Rce1 inh = i; UUG fidelity = -40
# Entry for O=C(COC(=O)/C=C/c1ccc(F)cc1)NC(=O)NCc1ccccc1 : eIF4H FP inh = .; PABP FP inh = .; MT1-MMP act inh = -1; MT1-MMP act inh RFP = 4; Env fusion inh = 34; CSC inhib = .; Rce1 inh = .; UUG fidelity = 3

# Next section.
SMILES,eIF4H FP inh,PABP FP inh,MT1-MMP act inh,MT1-MMP act inh RFP,Env fusion inh,CSC inhib,Rce1 inh,UUG fidelity
CCOc1ccc2[nH]c3c(N4CCc5ccccc5C4)ncnc3c2c1,-15,9,11,-11,16,87*,+,-23
O=C(Nc1ccc(F)cc1F)c1cncc(Br)c1,7,-1,-5,-3,6,-3,i,.
CCC1=C(OC(=O)N(CC)CC)N2C(=O)OC(=NCC(=O)OC)[C@]2(C)[C@H]2C1=CC[C@H]1C(=O)N(CC)C(=O)[C@H]12,-1,7,-1,4,-1,2,i,-8
Clc1c(CSc2nc3ccccc3o2)nc2ccccn12,14,21,-1,-3,.,-11,i,-43
Cc1ccc(S(=O)(=O)/N=C(\CN2CCCCC2)N2CCOCC2)cc1,-1,0,-1,0,.,.,i,-14
CCOC(=O)c1oc2cc(C)cc(O)c2c(=O)c1-c1csc(C)n1,-7,5,-2,-1,.,-4,i,.
O=C(Nc1ccc(F)cc1)c1ccc2nsnc2c1,5,-2,2,-5,-33,-5,i,-6
O=C(COc1ccc(C(=S)N2CCOCC2)cc1)N1CCOCC1,7,3,-1,4,0,-4,i,-15
O=c1c2ccccc2oc2ncccc12,-5,1,-3,6,.,1,i,-15
CC(=O)Oc1ccc(C(=O)N2c3ccccc3NC(=O)C2C)cc1 (configuration not stated),-2,1,-3,-4,-5,3,i,-17
CC(C)c1ccc(OCc2cccc(C(=O)N/N=C/c3cccnc3)c2)cc1,2,1,1,-4,.,65,i,-14
COc1ccccc1N1CCN(S(=O)(=O)c2ccc(-n3cnnn3)c(C)c2)CC1,-8,-6,2,2,-10,-3,i,3
COc1cc(CN2CCC(Cc3ccccc3)CC2)c([N+](=O)[O-])cc1OC,4,8,1,-2,-14,8,i,11
CN(C(=O)c1ccccc1)c1ccccc1C(=O)NCCc1ccccc1,-11,4,-5,-4,-4,-11,i,-7
O=C(Cc1ccc(F)cc1)N1CCC2(CC1)NCCc1[nH]cnc12,.,.,0,2,-1,-12,i,-14
Cc1ccccc1NC(=O)Cn1c(O)c(N=NC(=O)c2ccccc2O)c2ccccc21,29,-10,1,2,-12,1,i,.
O=C(O)C1=C[C@@H](C2CCCCC2)C[C@@H](OCCCCO)O1,0,-2,1,1,-3[16.7 µM],-3,i,1&0
CC(C)(C)NC(=O)COC(=O)c1ccc(Cl)nc1,-7,-4,-4,-1,15,2,i,-5
O=C(c1ccoc1)N1CCN(c2cc(-c3ccco3)nc3cc(-c4ccccc4)nn23)CC1,.,.,-7,-14,3,.,.,-12
Cc1ccc(C(C)C)c(OCC(O)CN2CCN(CCO)CC2)c1 (configuration not stated),0,4,2,6,.,9,.,-1
COc1ccc(N2CCN(C3CCCN(Cc4ccc(F)c(F)c4)C3)CC2)cc1 (configuration not stated),-1,11,9,2,14,3,i,-6
CC(C)(C)C(=O)Nc1ccnn1C1CCN(C(=O)c2ccc(Cl)cc2F)CC1,4,1,-1,1,9,5,i,-13
CCCS/C(N)=N/N=C/c1cc(C)ccc1O,-8,5,15,6,.,2,i,.
COc1ccc(-c2cc(C(=O)N/N=C(\C)c3cccnc3)c3cc(C)ccc3n2)cc1OC,-7,22,-2,5,-31,2,i,-7
Nc1c(N(CCC2=CCCCC2)C(=O)c2ccc([N+](=O)[O-])o2)c(=O)[nH]c(=O)n1Cc1ccccc1,.,.,-101,2,18,2,i,-12
Cc1ccc(Cl)cc1NC(=S)Nn1cnnc1,-7,8,0,1,6,-18,i,-39
CCOc1cccc(C2C(C(=O)c3ccco3)=C(O)C(=O)N2c2nnc(C)s2)c1 (configuration not stated),.,.,-43,4,-6,-4,.,-11
Cc1cc(C)cc(N(CCC#N)C(=O)CN2C(=O)NC3(CCCC3)C2=O)c1,-15,-6,3,3,-3,1,.,-6
CCOC(=O)c1c(S(=O)(=O)N(C)C2CCCCC2)c(C)n(C)c1C,-4,4,0,1,2,-3,i,2
CCOc1ccc(NC(=O)COc2ccc(C(=O)N3CCC(C(N)=O)CC3)cc2OC)cc1,.,.,3,3,-39,.,i,-5
COc1ccc(-n2cc(CN3CCC(OC)CC3)c(-c3cccc(F)c3)n2)cc1,-3,6,-4,-1,-5,-2,i,-14
N#CCCN(C(=O)COC(=O)CNC(=O)C12CC3CC(CC(C3)C1)C2)c1ccccc1,.,.,1,-1,-3,-15,i,0
CCOc1ccc(N2C(=O)CC(Cc3cc(C)cc(C)c3)C2=O)cc1 (configuration not stated),1,5,2,2,0,14,i,-2
Fc1cccc(NC(=S)NCc2ccccc2Cl)c1,-7,-6,7,-4,12,15,i,-29
Cc1ccc(/C=C/C(=O)O)cc1S(=O)(=O)NCCCO,1,6,3,4,.,.,i,.
C/C(=C/C(=O)N1CCc2ccccc21)C(=O)O,10,-5,4,6,5,-4,i,.
Cc1ccc(C(=O)CNc2cccc(Cl)c2)cc1,9,-1,1,5,-21,-10,i,-12
CCc1ccccc1N1C(=O)C2C3C=CC(CC3)C2C1=O (configuration not stated),-6,-4,4,2,-14,5,i,5
CCN(CC)CCNC(=O)C(=O)NCC1OCCN1S(=O)(=O)c1cccs1 (configuration not stated),7,4,2,5,-4,-10,i,-16
Clc1ccc(/C=N/NC2=Nc3cccc4cccc2c34)cc1,?,1,-46,5,-212,-5,i,.
COc1cccc2cc(C(=O)OCC(=O)NCc3ccc4c(c3)OCO4)c(=O)oc12,-7,-4,-1,-5,-18,5,i,.
COc1ccc(/C=C/C(=O)c2ccc(Cl)cc2)c(OC)c1,-17,-10,-4,-3,17,8,i,-9
COc1ccc([N+](=O)[O-])cc1N(CC(=O)O)S(C)(=O)=O,3,6,8,3,-3,-12,i,-8
CCOc1ccccc1C1CC(=O)NC2=C1C(=O)CC(C)(C)C2 (configuration not stated),4,2,4,0,.,-16,i,5
O=c1[nH]c(=O)n(C2CCCO2)cc1Br (configuration not stated),-7,-4,4,4,.,-3,i,-14
COc1ccc(N2CCN(C(=O)c3cc(C)oc3C)CC2)cc1,-7,7,-3,1,-10,2,i,-17
Cc1cc2cc(CN(CC3CCCO3)C(=S)NCc3ccco3)c(=O)[nH]c2cc1C (configuration not stated),6,-3,-4,3,.,13,i,.
CCN(CC)CCOC(=O)c1cccc(OC)c1,4,5,6,10,.,-1,i,-13
CC1(c2cccc(Br)c2)NC(=O)N(CC(=O)c2ccc3c(c2)OCO3)C1=O (configuration not stated),.,.,-1,-1,10,.,.,5
COc1cccc(/C=N/n2c(-c3cc(C)[nH]n3)n[nH]c2=S)c1OC,-3,5,-1,3,8,-16,i,.
O=C(COc1ccc(Cl)cc1Cl)NCC(=O)N/N=C/c1c[nH]c2ccccc12,-3,5,2,1,15,0,i,.
O=C1CC(N2CCN(c3ccc(S(=O)(=O)N4CCCC4)cc3)CC2)C(=O)N1c1ccc(F)cc1 (configuration not stated),-4,12,-2,0,.,9,i,17
O=C(c1cccc(-n2cccc2)c1)N1CCN(S(=O)(=O)c2ccccc2Br)CC1,.,.,3,-4,12,.,.,-9
COc1ccccc1N1C(C)=CC(=C(C#N)c2nc3ccccc3s2)C=C1C,?,-12,-45,-12,-17,32,i,.
CC(C)CCNC(=O)CNC(=S)N(CCCN1CCOCC1)Cc1cccs1,1,1,2,2,20,2,i,-17

# Assay outcomes: PubChem BioAssay, several laboratories
